Bioassay records deposited in PubChem by several laboratories.
Vif imaging – HIV Vif self-association inhibitors, primary screen, imaging, HEK293T, single point; HEK293T cells, Vif self-association by quenched fluorescence, 24 h; inhibition, % at 7.49 µM; actives 0.35% (n = 340,000); AID 602346, 2012; in the data active = inhibition above about 50%, passing the limit was not always enough; inconclusive = no clear call, values can overlap the other calls; inactive = below about 31%; note: some results filed as inactive read as strong as hits
SRC2 inh – inhibition of GAL4-SRC2 driven luciferase reporter, primary screen, SRC2 inhibitor project, cell-based, luminescence; actives 0.17% (n = 370,000); HEK293 GAL4-SRC2 luciferase reporter; AID 651957, 2012; inhibition, % at 9 µM; Nuclear receptor coactivator 2 (Homo sapiens), Q15596;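 active = inhibition above the mean inhibition of all tested compounds plus 3 SD, set per campaign, cut at about 52% in these data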;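 note: 0% = DMSO treated cells and 100% = cells given Gossypol at 36 µM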
LRH-1 inv ag – LRH-1 (NR5A2) inverse agonists, primary screen, cell-based, luminescence, HEK293T, StAR-luciferase reporter; LRH-1 transfected, 24 h; inhibition, % at 3.6 µM; actives 0.13% (n = 360,000); AID 602396, 2012;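 active = inhibition above the mean inhibition of all tested compounds plus 3 SD, cut at about 73% in these data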;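 note: 0% = DMSO wells and 100% = reporter-only cells lacking LRH-1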
SRC3 inh – SRC3 coactivator transcriptional activity inhibitors, primary screen, cell-based, luminescence | actives 0.17% (n = 360,000) | inhibition, % at 3.6 µM | Nuclear receptor coactivator 3 (Homo sapiens), Q9Y6Q9 | HEK293 GAL4-SRC3 luciferase reporter | AID 588352, 2011;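 active = inhibition above a per-campaign cutoff, the mean of all compounds plus 3 SD, cut at about 60% in these data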;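 note: 0% = DMSO-treated cells and 100% = gossypol-treated cells at 36 µM; higher means less SRC3-driven luciferase light from the GAL4 reporter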
EBV LMP1 NFkB – EBV LMP1-driven NF-kappaB luciferase reporter inhibitors, primary screen, cell-based, luminescence, single point | actives 0.69% (n = 350,000) | inhibition, % at 12.5 µM | AID 504558, 2011 | LMP1-induced NF-kappaB luciferase reporter cells; in the data active = inhibition above about 41%; inconclusive = no clear call, values can overlap the other calls;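 note: 0% = neutral control wells and 100% = reference inhibitor control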
SRC1 inh – SRC1 coactivator transcriptional activity inhibitors, primary screen, cell-based, luminescence; Nuclear receptor coactivator 1 (Homo sapiens), Q15788; HEK293 GAL4-SRC1 luciferase reporter; inhibition, % at 3.6 µM; actives 0.12% (n = 360,000);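 active = inhibition above the campaign mean plus 3 SD, with each screening campaign given its own cutoff, cut at about 60% in these data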;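 note: 0% = DMSO treated cells and 100% = gossypol at 36 µM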
Target sequence (Q15788 whole entry, looked up, the tested form may be a part): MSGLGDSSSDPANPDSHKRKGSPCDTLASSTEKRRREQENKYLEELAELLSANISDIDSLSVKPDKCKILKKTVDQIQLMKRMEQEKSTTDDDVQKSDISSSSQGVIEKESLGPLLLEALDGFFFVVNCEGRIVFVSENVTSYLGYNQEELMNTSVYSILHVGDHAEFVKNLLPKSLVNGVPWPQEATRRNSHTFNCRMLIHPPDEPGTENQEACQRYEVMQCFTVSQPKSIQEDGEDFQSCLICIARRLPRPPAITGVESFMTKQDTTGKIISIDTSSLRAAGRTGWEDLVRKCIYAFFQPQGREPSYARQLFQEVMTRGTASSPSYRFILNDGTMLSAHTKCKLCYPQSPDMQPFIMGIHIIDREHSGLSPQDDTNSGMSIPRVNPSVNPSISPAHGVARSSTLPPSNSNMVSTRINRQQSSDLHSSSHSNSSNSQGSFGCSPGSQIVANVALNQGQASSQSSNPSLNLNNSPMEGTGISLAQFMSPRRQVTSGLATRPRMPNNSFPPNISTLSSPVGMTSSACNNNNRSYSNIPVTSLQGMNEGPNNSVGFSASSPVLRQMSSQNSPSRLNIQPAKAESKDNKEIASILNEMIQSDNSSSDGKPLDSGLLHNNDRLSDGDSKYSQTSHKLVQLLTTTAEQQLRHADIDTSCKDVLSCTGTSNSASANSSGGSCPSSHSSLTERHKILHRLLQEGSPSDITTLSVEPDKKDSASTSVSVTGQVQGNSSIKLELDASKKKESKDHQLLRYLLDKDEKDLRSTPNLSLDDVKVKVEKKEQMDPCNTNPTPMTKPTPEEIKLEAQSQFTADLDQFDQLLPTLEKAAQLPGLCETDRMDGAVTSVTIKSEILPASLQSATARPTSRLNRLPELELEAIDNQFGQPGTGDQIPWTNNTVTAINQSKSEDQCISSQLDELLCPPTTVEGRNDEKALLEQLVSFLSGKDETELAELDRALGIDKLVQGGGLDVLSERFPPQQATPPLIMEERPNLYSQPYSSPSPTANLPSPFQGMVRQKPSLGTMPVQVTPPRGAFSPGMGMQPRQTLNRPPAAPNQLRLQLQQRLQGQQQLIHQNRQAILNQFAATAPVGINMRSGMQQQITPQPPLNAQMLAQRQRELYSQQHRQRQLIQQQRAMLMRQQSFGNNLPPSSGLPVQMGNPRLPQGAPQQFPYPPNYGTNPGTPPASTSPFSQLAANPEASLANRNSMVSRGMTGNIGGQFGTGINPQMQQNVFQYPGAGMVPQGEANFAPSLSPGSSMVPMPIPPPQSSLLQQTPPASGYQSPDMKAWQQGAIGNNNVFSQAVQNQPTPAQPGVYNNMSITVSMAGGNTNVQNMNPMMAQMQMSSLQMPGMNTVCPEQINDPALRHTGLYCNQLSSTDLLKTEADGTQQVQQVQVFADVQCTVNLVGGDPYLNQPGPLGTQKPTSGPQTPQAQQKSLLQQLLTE
TRAIL sens C8 – viability loss with TRAIL in NB7+C8 cells, primary screen, TRAIL sensitizer project, cell-based, ATPlite luminescence; inhibition (viability loss, TRAIL sensitization), % at 10 µM; actives 1% (n = 360,000);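 active = compounds causing at least 50% loss of cell viability in the single-dose screen, relative to plate controls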
TROY NFkB inh – inhibitors of TROY-driven NF-kB signaling, primary screen, Q293 LMP1-TROYcd cells, NF-kB luciferase, uHTS. Q293 LMP1-TROYcd NF-kB luciferase reporter, 4 h. inhibition, % at 10 µM. actives 0.98% (n = 360,000). AID 1347056, 2019;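 active = compounds whose plate-normalised and pattern-corrected inhibition of the luciferase reporter signal at the single screening dose is 50% or more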
NR2F2 inh – NR2F2 transcriptional activity inhibitors, primary screen, cell-based, luciferase reporter, HEK293T, luminescence; inhibition, % at 8.6 µM; HEK293T NGFI-A luciferase reporter; actives 0.7% (n = 370,000);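 active = inhibition above a per-plate cutoff, mean inhibition of test wells between control levels plus 3 SD, cut at about 38% in these data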;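 note: cells cotransfected with COUP-TFII expression vector driving the NGFI-A reporter; 0% = median of COUP-TF2 test wells and 100% = reporter-only cells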
Active calls of the source: *; i = inactive; ? = inconclusive; · = no result given; + = active, no number. Only part of the results is shown; the hit share may differ from the screen's.

SMILES | Vif imaging | SRC2 inh | LRH-1 inv ag | SRC3 inh | EBV LMP1 NFkB | SRC1 inh | TRAIL sens C8 | TROY NFkB inh | NR2F2 inh
CS(=O)(=O)c1sc(C#N)c2c1C(=O)CC(c1ccccc1)C2 (stereo not given) | -0.7 | 26.3 | -11.4 | 14.0 | 23.9 | -23.1 | 73.5* | 80.0* | -3.4
Cc1nn(C)c(C)c1N1C(=O)c2cccc3c(Br)ccc(c23)C1=O | · | -1.1 | -4.1 | -5.5 | 4.7 | -5.7 | 25.5 | 46.8 | 2.0
Cc1ccc(Cl)c(NC(=O)COC(=O)c2ccccc2C(=O)c2ccc(Cl)c([N+](=O)[O-])c2)c1Cl | 27.4 | -6.7 | 0.6 | -4.7 | 72.9* | -37.8 | 5.5 | 64.7* | 3.9
CC(=O)N1c2ccccc2S(=O)(=O)c2c1ccc1ccccc21 | -0.4 | 5.7 | -0.3 | -2.4 | 3.4 | 4.3 | -21.5 | -19.6 | 0.7
COc1ccc(Cn2cc3c(-c4ccc(F)cc4)nnc-3c3cc(OC)c(OC)cc32)cc1 | 182.6 | 6.9 | 22.2 | 1.0 | 69.2* | 13.1 | 43.4 | -33.2 | -0.4
Cc1ccc(NC(=O)c2cc(N3C(=O)C=CC3=O)ccc2N2CCOCC2)cc1Cl | -0.4 | 6.0 | -18.1 | -2.7 | 0.7 | -16.9 | -1.0 | -13.1 | -0.9
O=C1C=CC(=O)N1CCCCCCCCCCN1C(=O)C=CC1=O | -4.9 | -0.9 | -4.9 | -6.2 | -4.3 | -15.7 | 34.2 | 30.0 | 18.0
COc1ccc(OC)c(/C=C/c2nc3ccccc3[nH]c2=O)c1 | + | -6.5 | -8.2 | 6.2 | 7.4 | 10.5 | 3.9 | 3.1 | -8.5
O=[N+]([O-])c1ccc(C2=NN(c3ccccc3)C(c3ccco3)C2)cc1 (stereo not given) | · | -15.0 | 2.3 | 5.5 | 1.6 | -105.7 | -2.2 | -44.4 | -35.0
CCN(CC)c1ccc(/C=C/C(=O)c2ccc(Br)cc2)cc1 | -0.5 | -14.4 | -5.4 | 1.8 | 1.7 | 6.6 | -13.0 | -33.8 | 5.4
CCN(CC)c1ccc(/C=C/C(=O)C2C(=O)C=C(C)OC2=O)cc1 (stereo not given) | i | -56.0 | -80.6 | -39.6 | -28.9 | -84.3 | 25.8 | 5.7 | -38.7
Nc1c(C(=O)c2cccs2)sc2nsc(SCCN3CCCCC3)c12 | · | -18.3 | -40.1 | -30.9 | 29.3 | -88.0 | 12.4 | 21.7 | -34.8
CN(C)S(=O)(=O)c1ccc2c(c1)/C(=C/c1cc3c([nH]1)CCCC3)C(=O)N2 | · | -43.1 | -22.5 | -16.5 | -64.7 | -34.8 | 21.2 | -140.1 | -16.5
c1cc(SC2CCCCC2)cc(-c2nc3cnccn3c2NC2CCCCC2)c1 | 10.3 | -47.7 | 7.3 | 2.2 | -15.7 | 17.8 | 7.8 | -1.8 | 0.9
O=C(c1ccccc1)c1cc(Cl)ccc1N1C(=O)C=CC1=O | 2.0 | 10.2 | -12.7 | 6.4 | 8.9 | -27.3 | 1.6 | -7.5 | 22.1
O=C1Cc2ccccc2C(=O)N1c1ccccc1 | -1.7 | 2.0 | -16.8 | -12.3 | 3.9 | -36.3 | -15.1 | -24.2 | -10.7
Nc1c(C(=O)Nc2nc3ccccc3s2)sc2nc(-c3cccs3)ccc12 | 154.1* | · | -27.2 | -18.7 | 1.7 | -39.7 | 95.9* | -16.9 | ·
O=C(NCc1ccccc1C(F)(F)F)c1cccc2c1C(=O)c1ccc(N3CCC(N4CCCCC4)CC3)cc1S2(=O)=O | 75.1* | 2.7 | -7.0 | -1.9 | -27.8 | -12.8 | 41.9 | 3.7 | -12.7
COc1ccc(C(=O)c2sc3nc(-c4ccccc4)ccc3c2N)cc1OC | i | 13.3 | -2.3 | -17.3 | 8.1 | 1.2 | 1.4 | -11.3 | -7.0
Cc1ccc(NC2(C#N)CCCC2)cc1 | 3.9 | 11.8 | 13.7 | -4.8 | -7.9 | -3.4 | -5.5 | -22.8 | 8.8
O=C1C=CC(=O)N1c1ccc2c(c1)C(NC(=O)C(F)(F)F)c1ccccc1-2 (stereo not given) | 25.0 | 13.6 | 17.0 | -45.6 | -4.8 | -21.6 | 4.7 | -1.4 | -5.0
Nc1ccc2nc(-c3ccccc3)cnc2c1 | ? | -50.5 | -121.3 | -65.8 | -7.2 | -155.4 | 24.9 | -18.3 | -42.2
CCOC(=O)c1nc(S(C)(=O)=O)ncc1Cl | 28.9 | 11.1 | -35.7 | -15.5 | -14.9 | -58.7 | 11.3 | 20.6 | -10.0
O=C(NCc1cccc(F)c1)c1cccc2c1C(=O)c1ccc(N3CCC(Cc4ccccc4)CC3)cc1S2(=O)=O | 121.2* | · | -5.5 | -12.3 | -3.1 | -4.5 | 2.7 | 3.2 | ·
Cc1cccc(N2C(=O)/C(=C\c3ccc(OC(F)F)cc3)c3ccccc3C2=O)c1 | -0.8 | -8.8 | -11.1 | 13.8 | -21.6 | 1.1 | -9.3 | -15.1 | -8.6

Rewritten tab-delimited: entries from further up
structure	Vif imaging	SRC2 inh	LRH-1 inv ag	SRC3 inh	EBV LMP1 NFkB	SRC1 inh	TRAIL sens C8	TROY NFkB inh	NR2F2 inh
Cc1ccc(NC2(C#N)CCCC2)cc1	3.9	11.8	13.7	-4.8	-7.9	-3.4	-5.5	-22.8	8.8
O=C1C=CC(=O)N1c1ccc2c(c1)C(NC(=O)C(F)(F)F)c1ccccc1-2 (stereo not given)	25.0	13.6	17.0	-45.6	-4.8	-21.6	4.7	-1.4	-5.0

Among those listed so far, 5 have fluorine.
SMILES | Vif imaging | SRC2 inh | LRH-1 inv ag | SRC3 inh | EBV LMP1 NFkB | SRC1 inh | TRAIL sens C8 | TROY NFkB inh | NR2F2 inh
COc1ccc(Cn2cc3c(-c4ccc(F)cc4)nnc-3c3cc(OC)c(OC)cc32)cc1 | 182.6 | 6.9 | 22.2 | 1.0 | 69.2* | 13.1 | 43.4 | -33.2 | -0.4
O=C(NCc1ccccc1C(F)(F)F)c1cccc2c1C(=O)c1ccc(N3CCC(N4CCCCC4)CC3)cc1S2(=O)=O | 75.1* | 2.7 | -7.0 | -1.9 | -27.8 | -12.8 | 41.9 | 3.7 | -12.7
O=C1C=CC(=O)N1c1ccc2c(c1)C(NC(=O)C(F)(F)F)c1ccccc1-2 (stereo not given) | 25.0 | 13.6 | 17.0 | -45.6 | -4.8 | -21.6 | 4.7 | -1.4 | -5.0
O=C(NCc1cccc(F)c1)c1cccc2c1C(=O)c1ccc(N3CCC(Cc4ccccc4)CC3)cc1S2(=O)=O | 121.2* | · | -5.5 | -12.3 | -3.1 | -4.5 | 2.7 | 3.2 | ·
Cc1cccc(N2C(=O)/C(=C\c3ccc(OC(F)F)cc3)c3ccccc3C2=O)c1 | -0.8 | -8.8 | -11.1 | 13.8 | -21.6 | 1.1 | -9.3 | -15.1 | -8.6

The list continues:
SMILES | Vif imaging | SRC2 inh | LRH-1 inv ag | SRC3 inh | EBV LMP1 NFkB | SRC1 inh | TRAIL sens C8 | TROY NFkB inh | NR2F2 inh
CS(=O)(=O)c1sc2nc(-c3ccccc3)cc(-c3ccccc3)c2c1N | 7.7 | -15.4 | -1.6 | -31.7 | 0.8 | 3.5 | -5.8 | -1.8 | -12.7
O=C(O)c1ccccc1-c1ccc(/C=C/c2cc(C(F)(F)F)[nH]c(=O)n2)o1 | 2.3 | 21.8 | -4.2 | -4.3 | 4.9 | -13.0 | -3.5 | 37.1 | 0.4
Cn1c(=O)c([N+](=O)[O-])c(Cl)c2ccccc21 | -0.1 | -64.6 | 18.8 | -12.8 | 14.3 | -22.3 | 36.5 | 22.9 | -7.6
O=C1C(Cl)=C(Oc2ccccc2)C(=O)c2ccccc21 | 11.1 | -29.5 | 18.8 | -12.9 | 6.9 | -47.6 | 6.1 | 11.1 | -7.0
CC(=O)Nc1ccc2c(c1)Cc1cc(N3C(=O)C=CC3=O)ccc1-2 | 27.6 | -71.5 | -17.3 | -12.9 | 11.5 | -19.7 | -8.1 | 0.6 | -33.4
CCN(CC)c1ccc(-c2nc3cnccn3c2NC2CCCC2)cc1 | 8.7 | -45.9 | -20.5 | -25.4 | -3.7 | -34.8 | 14.6 | -100.7 | -6.5
COc1ccccc1N1N=C(c2cccs2)CC1c1ccccc1 (stereo not given) | 4.6 | 10.1 | 3.7 | -2.9 | 10.3 | 5.9 | 11.3 | -59.1 | -0.5
